From PubChem BioAssay
Insulin prom inh = TRM-6 insulin promoter activity inhibition; TRM-6 cells (human fetal islet line), insulin promoter-eGFP reporter, imaging; reporter expression induced with tamoxifen; inhibition, % at 2 µM; 0.9% of 130,000 active;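 active means inhibition above the mean plus 3 SD, with well images judged a real hit on visual review, cut at about 60% in these data, passing the limit was not always enough; inconclusive means inhibition over the cutoff but images rejected on review; inactive means inhibition not above the cutoff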
PKD1 inh = inhibitors of human PKD1 kinase; PKD1 kinase fluorescence polarization assay; inhibition, %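 (about 10 µM by stock and volumes)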; 0.056% of 200,000 active; AID 797;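 active means inhibition of 50% or more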;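 further: controls were vehicle for no effect and a reference inhibitor for full effect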
HSV replic up = HSV replication enhancement. 0.005% of 220,000 active. maximum fold increase. HSV replication augmentation in cells, fold increase;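 active means peak rise of 1.5-fold or more in the series; inconclusive means self-fluorescent or not available for retest; tested in PC3 cells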;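 further: first round at 10 µM; read as green reporter fluorescence; hits show the peak of a series up to 25 µM; 1 = signal of infected wells without compound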
RGS16-Gao = RGS16-Galphao interaction regulator (human); O15492+P09471; bead-based flow cytometry RGS16-Galphao binding, fluorescence; actives lie on both sides; binding response (% of control), % at 10 µM; 0.38% of 220,000 active; AID 1441;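 active means below 25% or above 175%, edge rows of some plates excepted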;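 further: Galphao activated by GDP with aluminum fluoride before binding; 100% = wells without compound and 0% = beads without RGS; some results beyond the cut were filed as inactive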
Target sequence (O15492 whole entry, looked up): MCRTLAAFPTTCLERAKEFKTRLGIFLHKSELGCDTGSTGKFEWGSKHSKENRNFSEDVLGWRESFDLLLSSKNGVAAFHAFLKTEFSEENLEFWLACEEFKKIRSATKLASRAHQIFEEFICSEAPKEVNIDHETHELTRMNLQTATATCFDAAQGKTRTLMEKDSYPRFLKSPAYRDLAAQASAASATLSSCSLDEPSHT
Target sequence (P09471 whole entry, looked up): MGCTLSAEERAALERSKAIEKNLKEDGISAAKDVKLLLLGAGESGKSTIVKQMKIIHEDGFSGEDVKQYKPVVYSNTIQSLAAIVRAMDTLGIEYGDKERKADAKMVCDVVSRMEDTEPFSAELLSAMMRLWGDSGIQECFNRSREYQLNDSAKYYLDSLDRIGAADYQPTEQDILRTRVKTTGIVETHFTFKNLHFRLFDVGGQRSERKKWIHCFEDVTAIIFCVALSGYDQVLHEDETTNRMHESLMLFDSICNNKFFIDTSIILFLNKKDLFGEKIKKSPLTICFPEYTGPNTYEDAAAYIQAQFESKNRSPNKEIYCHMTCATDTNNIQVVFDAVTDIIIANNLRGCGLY
GALR2 ag = GALR2 (human) receptor agonism | O43603 | GALR2-expressing cells, agonist activation read-out | activation, %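 (tested at 5 µM)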 | 0.48% of 140,000 active | AID 803;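 active means above mean plus 3 SD of all compounds, about 5% in these data, not always enough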;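 further: 0% = vehicle buffer wells and 100% = reference agonist at full effect; tested in CHO reporter cells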
Target sequence (O43603 whole entry, looked up): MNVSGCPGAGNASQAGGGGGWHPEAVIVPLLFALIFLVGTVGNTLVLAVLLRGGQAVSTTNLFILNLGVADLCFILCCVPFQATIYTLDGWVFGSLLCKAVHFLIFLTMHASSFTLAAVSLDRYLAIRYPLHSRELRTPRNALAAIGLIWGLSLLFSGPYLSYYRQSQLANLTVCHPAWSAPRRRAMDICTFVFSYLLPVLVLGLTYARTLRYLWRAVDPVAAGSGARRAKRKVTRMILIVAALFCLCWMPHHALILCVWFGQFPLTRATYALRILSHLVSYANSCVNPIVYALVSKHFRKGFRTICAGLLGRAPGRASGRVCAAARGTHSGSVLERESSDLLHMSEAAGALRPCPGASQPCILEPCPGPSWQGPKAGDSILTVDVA
Insulin prom inh cell count = further read-out of Insulin prom inh, marked with its call; normalized cell count, %; measured here: cell count, toxicity; reference of the scale not given here;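 cells exposed to compound for 48 h; stained nuclei by imaging scaled within each plate; lower means fewer cells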
HSV replic up primary fold = recorded beside HSV replic up, whose call it bears; fold increase; compound at 10 µM; measured here: primary screen fold increase 10 uM; tested in PC3 cells;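 GFP signal in the first replicate; 1 = infected wells without compound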
Numbers without * were called inactive. Rows are unselected. About 1.3% of those tested had a hit in this group.

Screening Cc1ccc(C2=NCCNC2=O)c(C)c1 returned PKD1 inh -1, HSV replic up inactive, RGS16-Gao 104, GALR2 ag -0.5 and HSV replic up primary fold 1.
Screening CC(C)N(C)C1CCN(C(=O)Nc2ccc(Cl)c(Cl)c2)CC1 returned Insulin prom inh 0, PKD1 inh -5, HSV replic up inactive, RGS16-Gao 101, GALR2 ag -0.7, Insulin prom inh cell count 125 and HSV replic up primary fold 0.89.
CCC(C)NS(=O)(=O)c1ccc(NS(=O)(=O)c2ccc(F)cc2)cc1 (configuration not stated) was read as Insulin prom inh -96, PKD1 inh -4, HSV replic up inactive, RGS16-Gao 105, GALR2 ag -0.8, Insulin prom inh cell count 56 and HSV replic up primary fold 0.87.
For Cc1ccccc1C(=O)/C=C1/c2ccccc2CC(C)(C)N1C the results were Insulin prom inh -9, PKD1 inh -9, HSV replic up inactive, RGS16-Gao 113, GALR2 ag -0.5, Insulin prom inh cell count 67 and HSV replic up primary fold 0.84.
For CCc1ccc(CCC(=O)Nc2nnc(CC)s2)o1 the results were PKD1 inh -11, HSV replic up inactive, RGS16-Gao 96, GALR2 ag -1.2 and HSV replic up primary fold 1.1.
`COCC(C)n1c(C)cc(C(=O)COC(=O)/C=C/c2cccc(F)c2)c1C` (configuration not stated) gave Insulin prom inh 55, PKD1 inh -4, HSV replic up inactive, RGS16-Gao 107, Insulin prom inh cell count 160 and HSV replic up primary fold 0.92.
For COc1ccccc1C(=O)Nc1ccc(Cc2ccncc2)cc1 the results were Insulin prom inh 27, PKD1 inh 8, HSV replic up inactive, RGS16-Gao 103, GALR2 ag -0.7, Insulin prom inh cell count 147 and HSV replic up primary fold 0.95.
For N#CC1=C(N)C(C#N)(C#N)C(c2ccncc2)C2CN(C(=O)OCc3ccccc3)CC=C12 (configuration not stated) the results were Insulin prom inh 5, PKD1 inh 1, HSV replic up inactive, RGS16-Gao 100, GALR2 ag -0.1, Insulin prom inh cell count 84 and HSV replic up primary fold 1.1.
`CC(=O)c1sc(N/N=C\c2ccccc2O)nc1C` gave PKD1 inh 3, HSV replic up inconclusive and RGS16-Gao 101.
Screening O=C(NNC1=C(C(=O)C(F)(F)F)CCC1)c1ccc(Br)cc1 returned Insulin prom inh 9, PKD1 inh 1, HSV replic up inactive, RGS16-Gao 90, GALR2 ag -1.3, Insulin prom inh cell count 126 and HSV replic up primary fold 0.81.

Brought forward from above: four compounds, then new ones.
For COc1ccccc1C(=O)Nc1ccc(Cc2ccncc2)cc1 the results were Insulin prom inh 27, PKD1 inh 8, HSV replic up inactive, RGS16-Gao 103, GALR2 ag -0.7, Insulin prom inh cell count 147 and HSV replic up primary fold 0.95.
For N#CC1=C(N)C(C#N)(C#N)C(c2ccncc2)C2CN(C(=O)OCc3ccccc3)CC=C12 (configuration not stated) the results were Insulin prom inh 5, PKD1 inh 1, HSV replic up inactive, RGS16-Gao 100, GALR2 ag -0.1, Insulin prom inh cell count 84 and HSV replic up primary fold 1.1.
`CC(=O)c1sc(N/N=C\c2ccccc2O)nc1C` gave PKD1 inh 3, HSV replic up inconclusive and RGS16-Gao 101.
Screening O=C(NNC1=C(C(=O)C(F)(F)F)CCC1)c1ccc(Br)cc1 returned Insulin prom inh 9, PKD1 inh 1, HSV replic up inactive, RGS16-Gao 90, GALR2 ag -1.3, Insulin prom inh cell count 126 and HSV replic up primary fold 0.81.
`COC(=O)c1sc(S(=O)(=O)Nc2ccc3cn[nH]c3c2)c(C(=O)OC)c1C` gave Insulin prom inh -20, PKD1 inh 1, HSV replic up inactive, RGS16-Gao 99, GALR2 ag 0.2, Insulin prom inh cell count 90 and HSV replic up primary fold 0.97.
`Cc1ccc(N/N=C2\CS(=O)(=O)N(C)c3ccsc32)cc1` gave Insulin prom inh -38, PKD1 inh 3, HSV replic up inactive, RGS16-Gao 98, Insulin prom inh cell count 99 and HSV replic up primary fold 0.89.
O=C(Cc1ccccc1)Nc1ccccc1N1CCCC1 was read as PKD1 inh -11, HSV replic up inactive, RGS16-Gao 92 and HSV replic up primary fold 1.
`COc1ccc(C)cc1NC(=O)CN1CCN(S(=O)(=O)c2ccc(F)cc2)CC1` gave Insulin prom inh -64, PKD1 inh 2, HSV replic up inactive, RGS16-Gao 102, GALR2 ag -2.2, Insulin prom inh cell count 125 and HSV replic up primary fold 0.92.
Screening COc1cc(/C=C2\S/C(=N/S(=O)(=O)c3ccc(C)cc3)NC2=O)c([N+](=O)[O-])cc1OC returned Insulin prom inh -453, PKD1 inh -2, HSV replic up inactive, RGS16-Gao 52, GALR2 ag -2.3, Insulin prom inh cell count 67 and HSV replic up primary fold 0.98.
`COc1cc(OC)cc(C(=O)NC(=S)NCCc2ccccc2)c1` gave Insulin prom inh -47, PKD1 inh 0, HSV replic up inactive, RGS16-Gao 70, GALR2 ag -1.8, Insulin prom inh cell count 97 and HSV replic up primary fold 0.9.
Screening COc1ccccc1NC(=O)N1CCCC1C(=O)Nc1nnc(C(C)C)s1 (configuration not stated) returned Insulin prom inh -62, PKD1 inh 1, HSV replic up inactive, RGS16-Gao 99, GALR2 ag -0.6, Insulin prom inh cell count 122 and HSV replic up primary fold 1.
OCC1C2c3ccccc3C(c3ccccc32)C1CO (configuration not stated) was read as HSV replic up inactive, RGS16-Gao 108 and HSV replic up primary fold 1.1.
`O=C(CCCN1C(=O)CCC1=O)Nc1cccc(C(F)(F)F)c1` gave PKD1 inh -2, HSV replic up inactive, RGS16-Gao 45, GALR2 ag -2.8 and HSV replic up primary fold 0.91.
O=S(=O)(c1ccccc1)N1CCN=C1SCc1cccnc1 was read as Insulin prom inh -38, PKD1 inh -5, RGS16-Gao 100 and Insulin prom inh cell count 124.

The final 2 compounds of the section above open the next one.
`O=C(CCCN1C(=O)CCC1=O)Nc1cccc(C(F)(F)F)c1` gave PKD1 inh -2, HSV replic up inactive, RGS16-Gao 45, GALR2 ag -2.8 and HSV replic up primary fold 0.91.
O=S(=O)(c1ccccc1)N1CCN=C1SCc1cccnc1 was read as Insulin prom inh -38, PKD1 inh -5, RGS16-Gao 100 and Insulin prom inh cell count 124.
`CCC(=O)Nc1cccc(C2=NOC3(C2)C[C@H](C(N)=O)N(C(=O)CC#N)C3)c1` (some centres not stated) gave HSV replic up inactive, RGS16-Gao 97 and HSV replic up primary fold 0.8.
NS(=O)(=O)c1ccc(NC(=O)c2ccc(-c3ccccc3)cc2)cc1 was read as Insulin prom inh 19, PKD1 inh -1, HSV replic up inactive, RGS16-Gao 101, Insulin prom inh cell count 108 and HSV replic up primary fold 0.91.
Screening Cc1ccc2oc(=O)c(/C=C(\O)c3sc(C)nc3C)nc2c1 returned Insulin prom inh 27, PKD1 inh 6, HSV replic up inactive, RGS16-Gao 110, GALR2 ag -0.7, Insulin prom inh cell count 135 and HSV replic up primary fold 1.
CN1C(=O)N(C)c2ccc(C=O)c3cccc1c23 was read as PKD1 inh -6, HSV replic up inactive, RGS16-Gao 98 and HSV replic up primary fold 0.93.
CC(c1nnc(SCC(=O)NC(=O)NCc2ccco2)n1-c1ccc(Cl)cc1)N(C)C (configuration not stated) was read as PKD1 inh -5, HSV replic up inactive, RGS16-Gao 166, GALR2 ag -4.2 and HSV replic up primary fold 0.85.
Screening CCOCCCNc1nc2c(c(=O)[nH]c(=O)n2C)n1CCCc1ccccc1 returned Insulin prom inh 31, PKD1 inh -5, HSV replic up inactive, RGS16-Gao 97, GALR2 ag 0.4, Insulin prom inh cell count 47 and HSV replic up primary fold 1.
For CC1=C(C(=O)OCc2ccccc2)C(/C=C/c2ccccc2)N2C(=O)CCSC2=N1 (configuration not stated) the results were Insulin prom inh -37, PKD1 inh -17, HSV replic up inactive, RGS16-Gao 104, GALR2 ag -2.4, Insulin prom inh cell count 95 and HSV replic up primary fold 0.95.
Screening O=C1C(=O)N(Cc2cccnc2)C(c2ccccn2)/C1=C(/O)c1ccc(Br)cc1 (configuration not stated) returned PKD1 inh -8, HSV replic up inactive, RGS16-Gao 91, GALR2 ag -2.6 and HSV replic up primary fold 0.65.
`N#CC1=C(N)Oc2nc[nH]c(=O)c2C1c1cccs1` (configuration not stated) gave Insulin prom inh 31, PKD1 inh -1, HSV replic up inactive, RGS16-Gao 99, Insulin prom inh cell count 94 and HSV replic up primary fold 1.
`O=C(CCl)NC1CCCc2ccccc21` (configuration not stated) gave PKD1 inh -10, HSV replic up inactive, RGS16-Gao 107 and HSV replic up primary fold 1.1.

Looked up by structure from the list above (two):
Screening CCOCCCNc1nc2c(c(=O)[nH]c(=O)n2C)n1CCCc1ccccc1 returned Insulin prom inh 31, PKD1 inh -5, HSV replic up inactive, RGS16-Gao 97, GALR2 ag 0.4, Insulin prom inh cell count 47 and HSV replic up primary fold 1.
`O=C(CCl)NC1CCCc2ccccc21` (configuration not stated) gave PKD1 inh -10, HSV replic up inactive, RGS16-Gao 107 and HSV replic up primary fold 1.1.

Continued:
`Cn1cnc2c(NCc3ccco3)ncnc21` gave PKD1 inh 4, HSV replic up inactive, RGS16-Gao 115 and HSV replic up primary fold 1.1.
COc1ccc(CCNC(=O)c2cc3c(=O)n(C)c4ccccc4c3n2C)cc1OC was read as HSV replic up inactive, RGS16-Gao 98 and HSV replic up primary fold 0.85.
`Cc1ccccc1S(=O)(=O)c1c(C)cc(C)n(C)c1=O` gave Insulin prom inh 57, PKD1 inh -9, RGS16-Gao 81 and Insulin prom inh cell count 45.
`CS(=O)(=O)N1CCN(C(=O)NC2CCCCC2)CC1` gave PKD1 inh 9, HSV replic up inactive, RGS16-Gao 99 and HSV replic up primary fold 0.97.
For COc1ccc(CCn2c(=O)c3cccnc3n(Cc3cccc([N+](=O)[O-])c3)c2=O)cc1OC the results were PKD1 inh -4, HSV replic up inactive, RGS16-Gao 103 and HSV replic up primary fold 0.95.
C=CCn1c(Cc2cccs2)nnc1SCC(=O)Nc1cccc(OC)c1 was read as Insulin prom inh 7, PKD1 inh -7, HSV replic up inactive, RGS16-Gao 105, GALR2 ag 0.3, Insulin prom inh cell count 173 and HSV replic up primary fold 0.92.
Screening CC1CCN(CCCCOc2ccccc2-c2ccccc2)CC1 returned Insulin prom inh -28, PKD1 inh -8, HSV replic up inactive, RGS16-Gao 101, GALR2 ag -1.4, Insulin prom inh cell count 100 and HSV replic up primary fold 0.72.
`O=C(O)c1ccccc1SCC(=O)N1c2ccccc2Sc2ccccc21` gave Insulin prom inh 27, PKD1 inh -1, HSV replic up inactive, RGS16-Gao 102, GALR2 ag 0.2, Insulin prom inh cell count 143 and HSV replic up primary fold 0.99.
For CC(=O)Nc1ccc(C)cc1NC(C)=O the results were Insulin prom inh 24, PKD1 inh -5, HSV replic up inactive, RGS16-Gao 105, GALR2 ag 1.0, Insulin prom inh cell count 131 and HSV replic up primary fold 1.
Screening O=C(Nc1ccc(F)cc1)c1ccccc1F returned Insulin prom inh -14, PKD1 inh 6, HSV replic up inactive, RGS16-Gao 119, GALR2 ag 0.1, Insulin prom inh cell count 101 and HSV replic up primary fold 0.7.
`COC(=O)CC(NC(=O)c1ccco1)c1cccc2ccccc12` (configuration not stated) gave PKD1 inh -3, HSV replic up inactive, RGS16-Gao 95, GALR2 ag -2.5 and HSV replic up primary fold 0.88.
For Cc1c([N+](=O)[O-])c([N+](=O)[O-])nn1CC(=O)N1CCOCC1 the results were PKD1 inh -2, HSV replic up inactive, RGS16-Gao 100 and HSV replic up primary fold 1.1.
`COc1ccc(Oc2ncccc2[N+](=O)[O-])cc1` gave HSV replic up inactive, RGS16-Gao 108 and HSV replic up primary fold 0.95.
For CC1=NN(c2ccccc2)C(=O)/C1=C/N(C)C the results were HSV replic up inactive, RGS16-Gao 108 and HSV replic up primary fold 1.
For CCc1nnc(NC(=O)CSc2nc(C)c3c(c2C#N)CCCC3)s1 the results were Insulin prom inh 85*, PKD1 inh -6, HSV replic up inactive, RGS16-Gao 101, GALR2 ag -0.6, Insulin prom inh cell count 85* and HSV replic up primary fold 0.84.
`O=C(Nc1ccon1)c1ccc2c(c1)OCO2` gave Insulin prom inh 22, PKD1 inh -2, HSV replic up inactive, RGS16-Gao 101, GALR2 ag -1.9, Insulin prom inh cell count 119 and HSV replic up primary fold 0.86.
For COC(=O)c1ccccc1NC(=O)c1ccco1 the results were Insulin prom inh 21, PKD1 inh 0, HSV replic up inactive, RGS16-Gao 101, GALR2 ag 0.2, Insulin prom inh cell count 106 and HSV replic up primary fold 0.89.
Cc1onc(-c2ccccc2)c1C(=O)N/N=C/c1c[nH]c2ccccc12 was read as Insulin prom inh 66, PKD1 inh -4, HSV replic up inactive, RGS16-Gao 103, Insulin prom inh cell count 85 and HSV replic up primary fold 1.
`COCCN(C(=O)CSc1nnc(Nc2ccccc2F)s1)c1c(N)n(Cc2ccccc2)c(=O)[nH]c1=O` gave PKD1 inh -7, HSV replic up inactive, RGS16-Gao 71, GALR2 ag -1.4 and HSV replic up primary fold 0.91.
